Screening results (PubChem)
GIRK2 activ: GIRK2 channel activation; P48051; AID 1259325; 63,000 compounds, 0.05% hits; HEK293-GIRK2 thallium flux, Thallos fluorescence; calls only for hits at 25 µM;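 active means among the strongest 0.2% of first-round signals and kept after retests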;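 further: first round at about 10 µM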
Target sequence (P48051 whole entry, looked up): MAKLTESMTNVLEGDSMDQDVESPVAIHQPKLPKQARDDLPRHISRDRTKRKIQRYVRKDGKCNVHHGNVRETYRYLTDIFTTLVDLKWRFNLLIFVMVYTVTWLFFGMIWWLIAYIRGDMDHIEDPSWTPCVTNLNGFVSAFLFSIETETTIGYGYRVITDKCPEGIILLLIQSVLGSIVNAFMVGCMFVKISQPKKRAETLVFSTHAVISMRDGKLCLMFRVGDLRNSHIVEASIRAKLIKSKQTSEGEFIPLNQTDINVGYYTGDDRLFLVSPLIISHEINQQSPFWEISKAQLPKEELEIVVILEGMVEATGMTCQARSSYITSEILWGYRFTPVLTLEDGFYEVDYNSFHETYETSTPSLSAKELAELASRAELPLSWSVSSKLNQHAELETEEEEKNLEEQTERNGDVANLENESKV
Calls only; i = inactive. A portion of the library, so the mix of outcomes need not match the whole.

Start of the data: the first 3 compounds as a preview:
#	canonical_smiles	GIRK2 activ
1	COc1ccc(F)cc1S(=O)(=O)N1CCCC(c2nnc(C(F)(F)F)o2)C1 (centres undefined)	i
2	Cc1ccc2oc3c(c(=O)c2c1)C(c1cccc([N+](=O)[O-])c1)N(c1ccccn1)C3=O (centres undefined)	i
3	COc1ccc(/C=C\C(=O)Nc2cc(C)nn2-c2nc3c(cnn3-c3ccccc3)c(=O)[nH]2)cc1OC	i

The list itself (from the top)
#	canonical_smiles	GIRK2 activ
1	COc1ccc(F)cc1S(=O)(=O)N1CCCC(c2nnc(C(F)(F)F)o2)C1 (centres undefined)	i
2	Cc1ccc2oc3c(c(=O)c2c1)C(c1cccc([N+](=O)[O-])c1)N(c1ccccn1)C3=O (centres undefined)	i
3	COc1ccc(/C=C\C(=O)Nc2cc(C)nn2-c2nc3c(cnn3-c3ccccc3)c(=O)[nH]2)cc1OC	i
4	O=C(Nc1cnc(N2CCOCC2)nc1)Nc1ccc2c(c1)OCCO2	i
5	COC(=O)c1ccc(CN2CCC(c3nnc(-c4ccco4)s3)CC2)o1	i
6	COc1ccccc1C(O)Cn1cc(C(=O)NC2CCc3ccccc32)nn1 (centres undefined)	i
7	COc1ccccc1N1CCN(CC(=O)NC2CCSC2=O)C1=O (centres undefined)	i
8	COC(=O)c1ccc(C(=O)Nc2nc3c(s2)CN(S(C)(=O)=O)CC3)cc1	i
9	COc1ccc(N2CC(c3nc4ccccc4n3Cc3ccccc3)CC2=O)cc1 (centres undefined)	i
10	COCCN1CCC(CNC(=O)Nc2c(F)cccc2F)CC1	i
11	CCNC(=O)CC1=C/C(=C\c2ccc(SC)cc2)c2ccc(F)cc21	i
12	CCOC(=O)c1ccc(NC(=O)c2ccc(CSc3ncccn3)cc2)cc1	i
13	O=C(NCC1CCN(S(=O)(=O)c2cccnc2)CC1)c1cc(-c2ccco2)on1	i
14	COc1ccc(SCC2CCN(C(=O)C(C)Oc3ccccc3)CC2)cc1 (centres undefined)	i
15	Cc1cc(C)c(C)c(S(=O)(=O)NC(C)C(=O)O)c1C (centres undefined)	i
16	O=C(NC1CCCC1)c1csc(Nc2ccc(OC(F)F)cc2)n1	i
17	CC(C)CNC(=O)CCc1nc2ccccc2n(CC(=O)NCc2ccccc2Br)c1=O	i
18	COCCn1c(=O)c2c(nc3n(-c4cccc(C)c4C)c(C)c(C)n23)n(C)c1=O	i
19	Cc1cc(-n2nnc(C(=O)NCc3ccccc3Cl)c2-c2ccncc2)ccc1F	i
20	Cn1c(=O)c2c(nc(CN3CCN(c4cccc(Cl)c4)CC3)n2CC(=O)C(C)(C)C)n(C)c1=O	i
21	CCN1C(=O)C(C)(C)COc2cc(NC(=O)Nc3cccc(C)c3)ccc21	i
22	Cc1cc2oc3c(c(=O)c2cc1Cl)C(c1cccnc1)N(c1nc(C)c(C)s1)C3=O (centres undefined)	i
23	COC(=O)c1ccc(Cn2nc(-c3cccs3)ccc2=O)o1	i
24	COc1ccc(C(=O)Nc2cc(N3CCN(c4ccccc4)CC3)ncn2)nn1	i
25	COc1cc(C2NC(=O)NC(O)(C(F)(F)F)C2C(C)=O)ccc1OCc1ccccc1 (centres undefined)	i
26	Cc1noc(CNC(=O)c2cnn3c2OCCC3)n1	i
27	O=C(Cn1nc(-c2ccccc2)c2sc(N3CCCCC3)nc2c1=O)NCCc1ccccc1	i
28	CCOc1cccc(C2c3c(oc4ccccc4c3=O)C(=O)N2CCCN2CCOCC2)c1 (centres undefined)	i
29	COc1cccc(NC(=O)CSc2nccn2-c2ccc(C(=O)NCc3ccccc3F)cc2)c1	i
30	Cc1ccc(N2CCN(S(=O)(=O)c3ccccc3)CC2)cc1Cl	i

Random excerpt: two compounds from above.
#	canonical_smiles	GIRK2 activ
25	COc1cc(C2NC(=O)NC(O)(C(F)(F)F)C2C(C)=O)ccc1OCc1ccccc1 (centres undefined)	i
22	Cc1cc2oc3c(c(=O)c2cc1Cl)C(c1cccnc1)N(c1nc(C)c(C)s1)C3=O (centres undefined)	i

Next section.
#	canonical_smiles	GIRK2 activ
31	COc1ccc(-c2ccc(S(=O)(=O)NC(Cc3ccccc3)C(=O)O)cc2)cc1 (centres undefined)	i
32	CCOC(=O)C1CCN(C(=O)c2snc3c(=O)n(Cc4ccccc4)c(=O)[nH]c23)CC1	i
33	N#Cc1ccc(NC(=O)CSc2nccn2-c2cccc(C(=O)NCc3ccc(F)cc3)c2)cc1	i
34	Cc1cc(C)c(S(=O)(=O)NCCn2cncn2)c(C)c1	i
35	Cn1cc(C2=C(c3cn(CCCN)c4ccccc34)C(=O)NC2=O)c2ccccc21	i
36	CN(C)CCN(C(=O)c1ccc(Cl)s1)c1nc2c(S(C)(=O)=O)cccc2s1	i
37	Nc1nc(NCc2ccc3c(c2)OCO3)ncc1[N+](=O)[O-]	i
38	O=C(Cn1c(=O)n(Cc2ccccc2)c(=O)c2nccnc21)NCCC1=CCCCC1	i
39	COC(=O)c1ccc(N/C=C(\C#N)c2nc(C3CC3)cs2)cc1	i
40	Cc1cc(C)n(-c2ccc(C(=O)NCc3ccncc3)nn2)n1	i
41	COc1cccc2sc(N(C)CC(=O)Nc3ccc(S(=O)(=O)Nc4nccc(C)n4)cc3)nc12	i
42	COc1ccc(C(=O)Nc2cc(N3CCOCC3)ncn2)cc1OC	i
43	COc1cccc(C(=O)Nc2ccc3c(c2)CCC(=O)N3CC(C)C)c1OC	i
44	O=c1c2ccccc2oc2nc(-c3ccco3)n(CCc3ccccc3)c(=O)c12	i
45	COc1ccc(CC(C)(O)CNC(=O)c2cc(-c3ccccc3)on2)cc1 (centres undefined)	i
46	O=C(c1cccc(Br)c1)N1CCC(COCc2ccc(F)cc2)CC1	i
47	COc1cc(OC)c(NC(=O)Cn2c(C)nc3c(c2=O)CCCC3)cc1Cl	i
48	O=C(/C=C/c1ccccc1)OC[C@]12O[C@H]1[C@@H](O)[C@@H]1C=CO[C@@H](O[C@@H]3O[C@H](CO)[C@@H](O)[C@H](O)[C@H]3O)[C@@H]12	i
49	CCC(C(=O)NCC1CCN(S(=O)(=O)c2cccnc2)CC1)c1ccccc1 (centres undefined)	i
50	O=C(Nc1cnccn1)c1cccc(S(=O)(=O)N2CCCC2)c1	i
51	Cn1c(C2CCCN(S(C)(=O)=O)C2)nn(CC(=O)N2CCCC2)c1=O (centres undefined)	i
52	Cc1cccc(NC(=O)COc2cc(C)nc(N3CCN(c4ccccc4)CC3)n2)c1	i
53	Cc1ccc(C)c(Cn2nc(C3CCN(S(C)(=O)=O)CC3)n(-c3cccs3)c2=O)c1	i
54	CC(=O)Cn1c(CN2CCN(c3ccc(F)cc3)CC2)nc2c1c(=O)n(C)c(=O)n2C	i
55	CCOC(=O)N1CCN(C(=O)c2ccc(-n3cccn3)nn2)CC1	i
56	O=c1c(S(=O)(=O)N2CCCC2)cccn1Cc1nc(-c2ccccc2Cl)no1	i
57	O=C(NCC(O)C1CCCCC1)C(c1ccccc1)c1ccccc1 (centres undefined)	i
58	COC(=O)c1ccc(C(=O)NCC(C)(O)Cc2ccc(OC)cc2)cc1 (centres undefined)	i
59	Cc1cccc(-c2noc(C3CCN(CC(=O)NCc4ccc(Cl)cc4)CC3)n2)c1	i
60	COc1ccc(S(=O)(=O)NCCN2CCN(c3ccc(Cl)cc3)CC2)c(C)c1	i
61	CC(O)Cn1c(N2CCCCCC2)nc2c1c(=O)[nH]c(=O)n2C (centres undefined)	i
62	CC(C)(C)c1ccc(C(=O)Nc2cnc(N3CCOCC3)nc2)cc1	i
63	CCc1cccc(NC(=O)CSc2ncc(S(=O)(=O)c3cccc(C(F)(F)F)c3)c(=O)[nH]2)c1	i
64	CCN1CCC(C(=O)Nc2n[nH]c3nnc(-c4cccc(F)c4F)cc23)CC1	i
65	O=C(NCc1ccc(F)cc1F)c1c(O)c2cccnc2[nH]c1=O	i
66	NC(=O)c1ccccc1OCC#CCNC(=O)c1cnn(-c2ccccc2)n1	i
67	COc1cccc(OCC(=O)Nc2ccc(CC(=O)N3CCCC3)cc2)c1	i
68	O=C1CC(c2nc(-c3ccccc3Cl)no2)CN1Cc1ccc(F)cc1F (centres undefined)	i
69	COc1ccccc1Oc1ccc(S(=O)(=O)Nc2cccc(C(=O)O)c2)cc1	i
70	O=C(c1ccsc1)N1CCN(CCNC(=O)C23CC4CC(CC(C4)C2)C3)CC1	i
71	CCN(CC)S(=O)(=O)c1ccc(C(=O)NCCC(O)c2ccc3c(c2)OCO3)cc1 (centres undefined)	i
72	COc1ccc(-c2csc3c(=O)n(CC(=O)Nc4ccc(OC)c(Cl)c4)cnc23)cc1	i
73	CCOc1ccc(Cl)cc1S(=O)(=O)N1CCOCC1	i
74	O=c1c2ccccc2oc2nc(-c3ccco3)n(Cc3ccco3)c(=O)c12	i
75	Cc1cc(C(=O)Nc2ccc3c(c2)C(=O)N(C)CCO3)c(C)o1	i
76	O=C(CC(Sc1cccc2cccnc12)c1ccc(F)cc1)c1cccs1 (centres undefined)	i
77	O=C(Cc1nc(-c2ccncc2)n[nH]1)NCCc1cccs1	i
78	CSc1ccccc1C(=O)NCC1CCN(Cc2ccco2)CC1	i
79	COc1cccc(C(=O)Nc2ccc3c(=O)c4cccc(Cl)c4oc3c2)c1	i
80	Cc1ccc(NC(=O)C(=O)NCCCN2CCCC2=O)cc1Cl	i
81	CC(C)(C)C(O)CCNS(=O)(=O)/C=C/c1ccccc1 (centres undefined)	i
82	CC(C)Oc1ccc(-c2noc(-c3nn(-c4ccccc4)ccc3=O)n2)cc1	i
83	Cc1ccc2c(c1)CCCN2C(=O)c1cnn2c1OCCC2	i
84	CCOC(=O)N1CCN(C(=O)c2nnn(-c3ccccc3Cl)c2-c2ccccn2)CC1	i
85	CCOc1ccc2ccccc2c1C(=O)N1CCN(C(=O)C2CC2c2ccccc2)CC1 (centres undefined)	i
86	Cc1ccc(S(=O)(=O)c2c(C)nn(C(C)(C)C)c2OC(=O)c2ccccc2C(F)(F)F)cc1	i
87	CS(=O)(=O)c1ccccc1NC(=O)/C=C/c1ccc2c(c1)OCO2	i
88	CC(CO)Nc1cc(-c2[nH]c3cccnc3c2-c2ccc(F)cc2)ccn1 (centres undefined)	i
89	COc1ccccc1C1(CNC(=O)c2ccc(C#N)cc2)CCOCC1	i
90	Cc1nc(-c2ccccc2)sc1CNC(=O)CCSc1ccccc1	i

Additional entries.
#	canonical_smiles	GIRK2 activ
91	O=C(NCCCS(=O)(=O)N1CCc2ccccc2C1)C(c1ccccc1)c1ccccc1	i
92	Cc1ccc(-n2c(N3CCC(C(=O)NCc4ccccc4F)CC3)nc3ccsc3c2=O)cc1	i
93	O=C(CN1CCC(Cn2cnc3ccccc32)CC1)Nc1nc2ccc(F)cc2s1	i
94	Cc1nnc(SCC(=O)N2CCCCCC2)c2c1cnn2-c1ccccc1	i
95	O=C(NC1CC(O)C(CO)C1)c1ccc(Br)o1 (centres undefined)	i
96	COc1ccc(Cl)cc1NC(=O)NCC1CCN(Cc2cc(C)oc2C)CC1	i
97	Cc1ccc(-c2noc(-c3ccc(=O)n(CC(=O)Nc4ccc(Cl)cc4)c3)n2)cc1	i
98	COc1ccc(CCNC(=O)CSc2nnc(Cn3ccc(=O)[nH]c3=O)o2)cc1	i
99	Cn1c(=O)c(Oc2ccc(F)cc2)cc2cnc(NC3CCOCC3)nc21	i
100	O=C(Nc1nnc(C2CC(=O)N(c3ccccc3)C2)o1)c1cc(=O)c2ccccc2o1 (centres undefined)	i
101	O=C(CSc1cc(NCc2ccc(Cl)cc2)ncn1)N1CCN(c2ccccc2)CC1	i
102	O=C(NNC(=O)c1cccn(Cc2ccc(F)cc2)c1=O)c1ccccc1F	i
103	O=C(NCc1ccccn1)c1c(O)c2sccc2[nH]c1=O	i
104	O=C(NCc1ccc(Cl)cc1)NCC1CCN(Cc2cccs2)CC1	i
105	CCn1c(C)cc(O)c(C(c2cccs2)N2CCC(C)CC2)c1=O (centres undefined)	i
106	N#Cc1ccc(OC2CCN(C(=O)C3CCCC3)CC2)nc1	i
107	O=C(Nc1ccccc1)Nc1ccc2c(c1)CCCN2C(=O)C1CC1	i
108	O=C(Nc1ccccc1)OC1CCCC(NC(=O)c2ccc(F)c(F)c2)C1 (centres undefined)	i
109	COc1ccc(-n2c(-c3ccccc3)cn3c4c(=O)n(CCN5CCCCC5)c(=O)n(C)c4nc23)cc1	i
110	CCCn1c(=O)c2sccc2n2c(CCCC(=O)Nc3ccc(Br)c(C)c3)nnc12	i
111	O=C(Cn1cccn1)N1CCCC(COCc2ccccc2)C1 (centres undefined)	i
112	Cc1cc(NC(=O)CCCN2C(=O)c3cccc4cccc(c34)C2=O)n(-c2ccccc2)n1	i
113	COC(=O)c1ccc(-c2csc(NC(=O)Nc3ccc4c(c3)OCO4)n2)cc1	i
114	CCC(C)NC(=O)CCn1c(=O)c2ccccc2n2c(SCc3ccccc3)nnc12 (centres undefined)	i
115	Cc1ccc(-n2nnc(C(=O)NCc3ccccc3F)c2-c2cccnc2)cc1	i
116	COc1ccc(-c2nn3c(Cc4ccc(Cl)cc4)nnc3s2)cc1OC	i
117	COC(=O)c1ccc2nc(C)cc(NC(=O)c3ccc(S(=O)(=O)NC4CC4)cc3)c2c1	i
118	Cn1nc(C2CCN(C(=O)Cc3ccc(F)cc3)CC2)n(-c2ccccc2)c1=O	i
119	Cc1[nH]c2ccccc2c1C(=O)C(=O)N1CCN(c2ncnc3c2nnn3-c2ccccc2)CC1	i
120	Cc1nc(C)c(-c2nnc(NC(=O)Cc3ccccc3Cl)o2)s1	i

Laid out differently: entries from further up.
117: COC(=O)c1ccc2nc(C)cc(NC(=O)c3ccc(S(=O)(=O)NC4CC4)cc3)c2c1
  GIRK2 activ: i

118: Cn1nc(C2CCN(C(=O)Cc3ccc(F)cc3)CC2)n(-c2ccccc2)c1=O
  GIRK2 activ: i

119: Cc1[nH]c2ccccc2c1C(=O)C(=O)N1CCN(c2ncnc3c2nnn3-c2ccccc2)CC1
  GIRK2 activ: i

120: Cc1nc(C)c(-c2nnc(NC(=O)Cc3ccccc3Cl)o2)s1
  GIRK2 activ: i

Continuation.
#	canonical_smiles	GIRK2 activ
121	O=C(NCC1CCCO1)c1c2c(nn1C1CCS(=O)(=O)C1)CCC2 (centres undefined)	i
122	COc1ccc(OCCn2c(C3CC(=O)N(C(C)(C)C)C3)nc3ccccc32)cc1 (centres undefined)	i
123	Cc1nnc(C2CCN(C(=O)C3c4ccccc4Oc4ccccc43)CC2)s1	i
124	CC(=O)C(C)n1c(=O)c2c(nc3n(C(C)c4ccccc4)c(C)cn23)n(C)c1=O (centres undefined)	i
